Bioassay records deposited in PubChem BioAssay by Southern Research Institute.
Mtb growth = Mycobacterium tuberculosis H37Rv growth inhibition, putative kinase inhibitor library, confirmatory dose response (AID 2842) | M. tuberculosis H37Rv growth inhibition; higher % means a stronger effect; some inactives read as strong as hits | inhibition, % at 10 µg/mL, or IC90 in µg/mL where a hit was titrated | actives 5.2% (n = 24,000);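 active = confirmed in a dose series; inconclusive = mostly over 85% at the one dose but not retested; inactive = below 85% or not confirmed; about a fifth of its hits are not listed in these tables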;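 also: bacteria incubated one week before Alamar blue readout; 0% = bacteria only wells and 100% = bacteria with high antibiotic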
Active calls of the source: *. An excerpt; the hit share may differ from the screen's.

Sample of the layout, 2 compounds:
What do the screens show for `CCOC(=O)c1nn(-c2ccccc2)c(=O)c2c(NC(=O)C3CCCCC3)scc12`?
Mtb growth: 2%

Results for Cc1cc(C)c(NS(=O)(=O)c2cc3c4c(c2)CCN4C(=O)CC3)c(C)c1 ?
Mtb growth: -4%

The whole of this part (from the top)
What do the screens show for `CCOC(=O)c1nn(-c2ccccc2)c(=O)c2c(NC(=O)C3CCCCC3)scc12`?
Mtb growth: 2%

Results for Cc1cc(C)c(NS(=O)(=O)c2cc3c4c(c2)CCN4C(=O)CC3)c(C)c1 ?
Mtb growth: -4%

How did COc1ccccc1C1CC(c2c(-c3ccccc3)c3cc(Cl)ccc3[nH]c2=O)=NN1C(=O)CN1CCCC1 (stereo not given) do in these assays?
Mtb growth: -3%

Results for Nc1nc(SCC(=O)N2CCN(c3ccccc3)CC2)[nH]c(=O)c1NC(=O)c1cccs1 ?
Mtb growth: -19%

How did O=C(Cn1c(=O)n(CCC(=O)NC2CCCC2)c(=O)c2ccccc21)NCCC1=CCCCC1 do in these assays?
Mtb growth: -11%

What do the screens show for `Cc1ccc(CC2S/C(=N/N=C/c3ccccc3O)NC2=O)cc1` (stereo not given)?
Mtb growth: 73%

How did CCCn1c(SCc2ccc(C)cc2)nc2c1c(=O)[nH]c(=O)n2C do in these assays?
Mtb growth: 16%

What do the screens show for `CCOc1ccc(-c2nnc3c4cc5c(cc4n(Cc4ccccc4)cc2-3)OCO5)cc1`?
Mtb growth: 4%

How did O=C(Cc1ccc(F)cc1)Nc1nnc(-c2ccc(Br)cc2)s1 do in these assays?
Mtb growth: -11%

How did O=C(Cn1cnc2c(cnn2-c2ccccc2)c1=O)Nc1ccc(Cl)c(Cl)c1 do in these assays?
Mtb growth: 3%

How did Cc1nnc2ccc(-c3cccc(NC(=O)c4cccc(C(F)(F)F)c4)c3)nn12 do in these assays?
Mtb growth: 23µg/mL*

Results for O=C1N=c2ccc(F)cc2=C1c1sc(N2CCN(c3ccccc3)CC2)nc1O ?
Mtb growth: -11%

What do the screens show for `CN(C1CCCCC1)S(=O)(=O)c1ccc(C(=O)Nc2nc(-c3ccncc3)cs2)cc1`?
Mtb growth: -8%

How did Fc1cccc2sc(Nc3sc4c(c3-c3nc5ccccc5s3)CCCC4)nc12 do in these assays?
Mtb growth: 3%

What do the screens show for `O=C1Cc2cc(NC(=O)c3ccccc3Cl)ccc2N1`?
Mtb growth: -5%

What do the screens show for `CCOc1ccc2c(c1)c(=O)c(C(=O)c1ccc(OC)cc1)cn2Cc1ccccc1F`?
Mtb growth: 2%

How did O=C(c1ccc(Br)o1)N1CCN=C1SCc1ccc(C(F)(F)F)cc1 do in these assays?
Mtb growth: 4%

How did C=C(C)Cn1c(N/N=C/c2cc(Br)c(O)c(OC)c2)nc2c1c(=O)n(C)c(=O)n2C do in these assays?
Mtb growth: 0%

How did Cc1ccc(N2CC(c3nc4ccccc4n3CCc3ccccc3)CC2=O)cc1C (stereo not given) do in these assays?
Mtb growth: 42%

What do the screens show for `CCCN1C(SCC(=O)Nc2ccccc2C(=O)OCC)=NS(=O)(=O)c2ccccc21`?
Mtb growth: -4%

Looked up by structure from above (5):
How did O=C(c1ccc(Br)o1)N1CCN=C1SCc1ccc(C(F)(F)F)cc1 do in these assays?
Mtb growth: 4%

How did Fc1cccc2sc(Nc3sc4c(c3-c3nc5ccccc5s3)CCCC4)nc12 do in these assays?
Mtb growth: 3%

How did O=C(Cc1ccc(F)cc1)Nc1nnc(-c2ccc(Br)cc2)s1 do in these assays?
Mtb growth: -11%

What do the screens show for `O=C1Cc2cc(NC(=O)c3ccccc3Cl)ccc2N1`?
Mtb growth: -5%

What do the screens show for `CN(C1CCCCC1)S(=O)(=O)c1ccc(C(=O)Nc2nc(-c3ccncc3)cs2)cc1`?
Mtb growth: -8%

Carrying on.
Results for CCOC(=O)c1nn(-c2ccc(Cl)cc2)c(=O)c2c(NC(=O)CC)scc12 ?
Mtb growth: 7%

What do the screens show for `CC(=O)c1sc(NC(=O)c2ccc(F)cc2)nc1C`?
Mtb growth: -1%

What do the screens show for `Cn1c(NC(=O)C(C)(C)Oc2ccc(Cl)cc2)cc(=O)n(C)c1=O`?
Mtb growth: 8%

What do the screens show for `COc1ccc(C(=O)NCc2nnc(SCC(=O)Nc3nnc(C)s3)n2C2CCCCC2)cc1`?
Mtb growth: -7%

What do the screens show for `Cc1nnc(-c2cc3ccccc3n2CC(N)=O)o1`?
Mtb growth: -9%

How did COc1ccc(OC)c(NC(=O)c2oc3ccccc3c2NC(=O)C(C)Cl)c1 (stereo not given) do in these assays?
Mtb growth: -10%

What do the screens show for `NC(=O)c1cc(-c2ccccc2)sc1NC(=O)CSc1ncnc2sc3c(c12)CCCC3`?
Mtb growth: -7%

How did Cc1cc(N2CCN(Cc3ccccc3)CC2)n2ncc(-c3ccccc3)c2n1 do in these assays?
Mtb growth: -4%

What do the screens show for `CC(C)(C)n1nc2c(c1NC(=O)Cc1cccs1)CSC2`?
Mtb growth: 6%

What do the screens show for `CCN1CCc2c(sc(NC(=O)c3ccc(S(=O)(=O)N4CCCCC4)cc3)c2C(N)=O)C1`?
Mtb growth: 0%

How did Cc1ccc(-c2nnc(NC(=O)c3c(F)cccc3F)o2)c(C)c1 do in these assays?
Mtb growth: 1.2µg/mL*

What do the screens show for `O=C(NNc1nc2cc3c(cc2s1)OCCO3)c1ccccc1`?
Mtb growth: inconclusive

What do the screens show for `O=C(c1cccs1)N(CCCn1ccnc1)c1nc2c(Cl)cccc2s1`?
Mtb growth: 5.2µg/mL*

How did COc1ccc(OC)c2[nH]c(=O)c(CCNC(=O)/C=C\c3ccc4c(c3)OCO4)cc12 do in these assays?
Mtb growth: -5%

How did Fc1ccc(Nc2nc(NCCc3ccccc3)nc3nccnc23)cc1 do in these assays?
Mtb growth: -9%

Results for O=C(Cn1cnc2c(cnn2-c2ccc(Cl)cc2)c1=O)NCc1ccccc1 ?
Mtb growth: -5%

How did O=C(O)c1cccnc1SCc1cc2c(cc1Cl)OCO2 do in these assays?
Mtb growth: -1%

Results for Cc1nc2c(ccc3nc(NC(=O)Cc4ccc(S(C)(=O)=O)cc4)sc32)s1 ?
Mtb growth: 1%

What do the screens show for `Cc1cccc(NC(=O)CSc2nc(N)c(NC(=O)c3ccco3)c(=O)[nH]2)c1C`?
Mtb growth: -6%

Results for CCOC(=O)COc1cccc2c1CCN(Cc1ccccc1)C2=O ?
Mtb growth: -19%

How did CCN(CC)S(=O)(=O)c1ccc(C(=O)Nc2nnc(-c3cccc(C)c3)s2)cc1 do in these assays?
Mtb growth: -1%

What do the screens show for `Cc1cccc(-c2nc(C(N)=O)c3[nH]c(=O)n(-c4ccccc4F)c3n2)c1`?
Mtb growth: -8%

Results for COc1ccccc1N1C(=O)NC2CC1(C)Oc1ccc([N+](=O)[O-])cc12 (stereo not given) ?
Mtb growth: -2%

What do the screens show for `Cc1cc(OC(C)C(=O)c2ccccc2)c2c3c(c(=O)oc2c1)CCC3` (stereo not given)?
Mtb growth: -5%

How did COc1ccc2c(c1)O/C(=C\c1ccc(OC(=O)N(C)C)cc1)C2=O do in these assays?
Mtb growth: -11%

How did CCOc1ccc2c(c1)c1nnc(-c3ccc(F)cc3)c-1cn2Cc1ccc(OC)cc1 do in these assays?
Mtb growth: 2%

How did Cc1ccccc1C(=O)Nc1nnc(-c2cc(Cl)ccc2Cl)o1 do in these assays?
Mtb growth: 1.3µg/mL*

What do the screens show for `COc1cc(NC(=O)CCCc2nnc3n(C)c(=O)c4sccc4n23)cc(OC)c1OC`?
Mtb growth: -4%

What do the screens show for `COc1ccc(C(=O)CSc2nc(C)cc(=O)[nH]2)cc1`?
Mtb growth: -19%

How did COc1ccc(S(=O)(=O)NCC2COC3(CCCCC3)O2)cc1F (stereo not given) do in these assays?
Mtb growth: 7%

What do the screens show for `O=C(O)c1ccccc1C(=O)Nc1ncc(S(=O)(=O)c2ccc([N+](=O)[O-])cc2)s1`?
Mtb growth: -21%

Results for Cn1c(O)c(N=Nc2nc3c(c(=O)[nH]c(=O)n3C)n2C)c(=O)n(C)c1=O ?
Mtb growth: -7%

What do the screens show for `COc1ccc(-c2ccc(C3C(C#N)=C(N)Oc4n[nH]c(C)c43)o2)cc1` (stereo not given)?
Mtb growth: 4.9µg/mL*

Results for CCS(=O)(=O)c1cccc(C(=O)Nc2nc(-c3ccc4c(c3)CCCC4)cs2)c1 ?
Mtb growth: 55%

How did CCCCSc1nc2c(cnn2-c2ccc(C)c(C)c2)c(=O)[nH]1 do in these assays?
Mtb growth: 1%

Results for CCCCOc1ccc(C(=O)NCc2nnc(SCC(=O)Nc3nnc(C)s3)n2-c2ccccc2)cc1 ?
Mtb growth: -2%

Results for COc1ccccc1CNC(=O)C(=O)Nc1cc2c3c(c1)CCC(=O)N3CCC2 ?
Mtb growth: -8%

How did Cc1ccc2nc(Nc3ccc(C(=O)O)cc3)nc(-c3ccccc3)c2c1 do in these assays?
Mtb growth: 44%

What do the screens show for `CC(=O)N1CCc2c(sc(NC(=O)c3cc4c(ccc5ccccc54)oc3=O)c2C(N)=O)C1`?
Mtb growth: -6%

How did CCc1cccc(OCC(=O)Nc2ccc3c(c2)OCO3)c1 do in these assays?
Mtb growth: 56%

What do the screens show for `Cc1cn2c3c(=O)[nH]c(=O)n(C)c3nc2n1C1CC(C)CC(C)(C)C1` (stereo not given)?
Mtb growth: 2%

What do the screens show for `COc1ccc2cc(CCNC(=O)c3ccccc3Cl)c(=O)[nH]c2c1`?
Mtb growth: 20%

How did COc1cc(OC)cc(C(=O)Nc2sc3c(c2C#N)CCN(Cc2ccccc2)C3)c1 do in these assays?
Mtb growth: -1%

How did Cc1c(Cl)ccc2sc(N(CCCn3ccnc3)C(=O)/C=C/c3cccs3)nc12 do in these assays?
Mtb growth: 0.24µg/mL*

What do the screens show for `O=c1[nH]cc(S(=O)(=O)Nc2ccc(C(F)(F)F)cc2)c(=O)[nH]1`?
Mtb growth: 6%

How did CCOc1cccc(-c2nc(C(N)=O)c3[nH]c(=O)n(-c4ccc5c(c4)OCO5)c3n2)c1O do in these assays?
Mtb growth: -2%

Results for Cc1cc(NC(=O)C(C)N2C(=O)c3ccccc3S2(=O)=O)no1 (stereo not given) ?
Mtb growth: 0%

Results for O=C1CCc2cc(S(=O)(=O)Nc3cc(Cl)cc(Cl)c3)cc3c2N1CCC3 ?
Mtb growth: -9%

How did O=C(Nc1nc(-c2cccs2)c(C(=O)C(F)(F)F)s1)c1ccccc1 do in these assays?
Mtb growth: inconclusive

What do the screens show for `C=CCSc1nc2c(c(=O)[nH]1)C(c1cccnc1)C1=C(CC(C)(C)CC1=O)N2` (stereo not given)?
Mtb growth: -3%

How did COc1ccc(C)cc1NC(=O)c1c[nH]c(=O)n(-c2ccccc2)c1=O do in these assays?
Mtb growth: -14%

What do the screens show for `CCCc1cc(=O)[nH]c2nnc(SCc3cccc(F)c3)n12`?
Mtb growth: -14%

Results for COC(=O)c1ccc(C(=O)Nc2nc3c(s2)C(=O)CC(C)(C)C3)cc1 ?
Mtb growth: 10%

What do the screens show for `Cc1cccc(C(=O)Nc2nnc(C3=COCCO3)o2)c1`?
Mtb growth: 3.4µg/mL*

How did COc1cccc2cc(-c3csc(Nc4ccc(C)cc4)n3)c(=O)oc12 do in these assays?
Mtb growth: 0%

Results for Cc1nc2sc(C(c3ccccc3)N3CCOCC3)c(O)n2n1 (stereo not given) ?
Mtb growth: -2%

Results for Cc1c(C)n2c(SCC(=O)N3CCCCC3)nnc2[nH]c1=O ?
Mtb growth: -10%

Results for O=C(Nc1nccs1)c1ccc(-c2nc3ccccc3s2)s1 ?
Mtb growth: -2%

Results for COc1ccc(-c2nnc3ccc(SCc4ccc(F)cc4)nn23)cc1 ?
Mtb growth: 2%

What do the screens show for `C=CCc1ccccc1OCC(=O)OCCNC(=O)c1cccnc1`?
Mtb growth: 10%

What do the screens show for `CC(=O)Nc1ccc(Nc2cc(C)nc3c(-c4ccccc4)cnn23)cc1`?
Mtb growth: 11%

What do the screens show for `O=C1c2ccccc2C(=O)c2c(OCC(F)(F)C(F)F)cccc21`?
Mtb growth: 5%

What do the screens show for `COc1ccc(-c2noc(-c3cc(C(C)C)[nH]n3)n2)cc1`?
Mtb growth: 12µg/mL*

Results for C=CCn1c(SCCCCCC)nc2c1c(=O)[nH]c(=O)n2C ?
Mtb growth: 45%

Results for Nc1[nH]c(N=NC(=O)COc2ccccc2)c2ccccc12 ?
Mtb growth: 2%

What do the screens show for `Cc1cc(C)c2nc(NC(=O)c3cc(=O)c4ccccc4o3)sc2c1`?
Mtb growth: -4%

How did COc1ccc(-c2noc(-c3cc4ccccc4o/c3=N\NS(=O)(=O)c3ccc(C)cc3)n2)cc1 do in these assays?
Mtb growth: 0%

What do the screens show for `O=C(Nc1ccc(F)cc1)c1oc2ccccc2c1NC(=O)c1c(F)cccc1Cl`?
Mtb growth: -7%

How did COc1ccc2nc(-c3ccc(F)c(NC(=O)c4ccccc4OC)c3)cn2n1 do in these assays?
Mtb growth: -1%

Results for Cc1ccc(C)c2[nH]c(=O)c(CCNC(=O)c3ccc(S(=O)(=O)N(C)C)cc3)cc12 ?
Mtb growth: -5%

How did COc1ccc(-n2nnc3c(SCc4ccc(F)cc4)ncnc32)cc1 do in these assays?
Mtb growth: 13%

How did COc1cc(Nc2ncnc(N)c2[N+](=O)[O-])cc(OC)c1OC do in these assays?
Mtb growth: 4%

Results for Nn1c(SCc2ccccc2F)nncc1=O ?
Mtb growth: -4%

Results for CCOc1ccc2nc(N(CCCn3ccnc3)C(=O)c3cccs3)sc2c1 ?
Mtb growth: 3.4µg/mL*

What do the screens show for `O=C(/C=C1/Nc2ccccc2NC1=O)Nc1cccc(C(F)(F)F)c1`?
Mtb growth: 1%

How did COc1ccc2ccccc2c1C1NC(=O)N(Cc2ccccc2)C(C)=C1C(=O)OC(C)C (stereo not given) do in these assays?
Mtb growth: 3%

What do the screens show for `CC1CCCN(c2nc3c(c(=O)[nH]c(=O)n3C)n2CCCSc2nc3ccccc3o2)C1` (stereo not given)?
Mtb growth: 50%

Results for Cc1ccc(-c2noc(-c3cc(C4CC4)[nH]n3)n2)cc1 ?
Mtb growth: 9%
